Compound activity as filed in PubChem BioAssay.
Lassa entry inh: inhibitors of Lassa virus binding or cell entry; Lassa virus pseudotype entry inhibition, cell reporter; control for the full effect not named in the record; Potency, µM (doses to about 37.9 µM), for the others: at the highest dose activity change, negative = inhibition, usual class: inhibitors; 300,000 compounds, 1.2% hits; AID 540256; active means well fitted inhibition curve with a large enough effect; inconclusive means small, poorly fitted or top-dose-only effect, or effect the other way; inactive means flat fitted curve, though single readings scatter; tested in HEK293 cells; note: % is set by controls: 0 for no effect and ±100 for the full control effect; nearly all actives have a fitted effect of over 50% in size; luciferase read-out
SARS PLpro yeast: blocks SARS-CoV papain-like protease in a yeast assay. S. cerevisiae expressing SARS-CoV PLpro, growth rescue; control for the full effect not named in the record. Potency, µM (series often up to 32.9 µM), for inactives: at the top dose activity, positive = growth rescue. 330,000 compounds, 0.19% hits. AID 485353; active means well fitted rising curve with a large enough effect; inconclusive means small, poorly fitted or top-dose-only effect; inactive means no such curve, though single readings can be large or run the other way; note: 0% is about no effect; nearly all actives have a fitted effect of over 55% in size; growth read by luminescence after 48 h
RE007 growth inh: less growth of the S. pombe RE007 Vpr strain; AID 651644; 360,000 compounds, 0.21% hits; Potency, µM (series often up to 92.2 µM), for the others: at the highest dose activity change, negative = less growth; S. pombe RE007 Vpr strain, BacTiter-Glo ATP luminescence, 24 h; control for the full effect not named in the record; active = well fitted falling curve with a large enough effect; inconclusive = small, poorly fitted or top-dose-only effect; inactive = no such curve, though single readings can be large or run the other way;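 note: % is set by controls: 0 for no effect and ±100 for the full control effect; nearly all actives have a fitted effect of over 50% in size; the assay follows cell death caused by Vpr and the record does not say whether a fall means rescue or toxicity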
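Fission yeast RE007 carrying one integrated HIV-1 vpr copy, seeded at OD 0.01 in PMG+AL medium with 23 nL pinned compound. Grown 24 h at 30 degrees; viability read by BacTiter-Glo luminescence after 5 min.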
Cruzain Triton: cruzain (T. cruzi) inhibition with detergent; Potency, µM, for the others: max response, negative = inhibition, most hits filed as inhibitors; AID 1478; P25779; purified cruzain, Z-FR-AMC fluorescence, 0.01% Triton; 200,000 compounds, 0.43% hits;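 note: plate controls were neutral wells for no effect and buffer without enzyme for full effect; nearly all actives have a fitted effect of over 40% in size; top concentration of the series not given in the record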
Target sequence (P25779 123-467 limits assumed): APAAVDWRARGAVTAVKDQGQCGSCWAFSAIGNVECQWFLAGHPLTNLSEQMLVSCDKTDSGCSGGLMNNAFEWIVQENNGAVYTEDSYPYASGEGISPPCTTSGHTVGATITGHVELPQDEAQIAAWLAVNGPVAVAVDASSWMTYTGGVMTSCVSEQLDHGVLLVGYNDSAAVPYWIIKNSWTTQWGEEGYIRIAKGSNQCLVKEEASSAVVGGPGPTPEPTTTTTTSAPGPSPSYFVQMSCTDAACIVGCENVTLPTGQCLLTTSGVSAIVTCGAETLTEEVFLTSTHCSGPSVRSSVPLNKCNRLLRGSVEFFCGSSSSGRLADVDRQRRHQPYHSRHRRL
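15 min RT preincubation of 1.5 nM cruzain with compound, then 2 uM Z-FR-AMC added; kinetic AMC fluorescence, 60 s delta. Triton X-100 0.01%, pH 5.5.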
Marburg entry inh: Marburg virus entry inhibition | Marburg virus pseudotyped entry inhibition, cell reporter; control for the full effect not named in the record; about a third of the inactives were read at about 46 µM | Potency, µM (highest dose often 37.8 µM), inactives show top-dose activity change, negative = inhibition, hits mostly inhibitors | 300,000 compounds, 1.8% hits; active = well fitted inhibition curve with a large enough effect; inconclusive = small, poorly fitted or top-dose-only effect, or effect the other way; inactive = flat fitted curve, though single readings scatter; tested in HEK293 cells; about a fifth of its hits are not listed in these tables; note: % is set by controls: 0 for no effect and ±100 for the full control effect; luciferase read-out
NS1 function inh: influenza NS1 inhibition; 270,000 compounds, 0.4% hits; S. cerevisiae slowed by influenza A NS1, growth recovery by OD600; Potency, µM (doses to about 46.1 µM), for inactives: top-dose activity, positive = more growth; active means well fitted rising curve with a large enough effect; inconclusive means small, poorly fitted or top-dose-only effect; inactive means no such curve, though single readings can be large or run the other way; note: nearly all actives have a fitted effect of over 50% in size
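A cell-based growth assay was used: compounds that relieve NS1-induced slow growth of budding yeast raise OD600. Assay medium was yeast nitrogen base with ammonium sulphate and -URA supplement, pH 6.0, with 2% galactose.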
StopGo reporter: lowers the luciferase signal of an FMDV 2A StopGo reporter; 410,000 compounds, 1.2% hits; Potency, µM (doses to about 57.9 µM), without a hit: top-dose signal change, negative = less light; human cells with a luciferase reporter of 2A StopGo recoding; control for the full effect not named in the record; active = well fitted falling curve with a large enough effect; inconclusive = small, poorly fitted or top-dose-only effect; inactive = no such curve, though single readings can be large or run the other way; tested in HEK293T cells; note: % is set by controls: 0 for no effect and ±100 for the full control effect; nearly all actives have a fitted effect of over 45% in size; luciferase light after 4 h
Cruzain inh noDet: cruzain (T. cruzi) inhibition without detergent | AID 1476 | Potency, µM, inactives show max response, negative = inhibition, most hits filed as inhibitors | P25779 | purified cruzain, Z-FR-AMC fluorescence, no detergent | 200,000 compounds, 2.3% hits;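 note: plate controls were enzyme without inhibitor for no effect and buffer without enzyme for full effect; nearly all actives have a fitted effect of over 40% in size; top concentration of the series not given in the record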
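Purified cruzain at 1.5 nM, pre-incubated 15 min with compound at room temperature in 100 mM sodium acetate pH 5.5, 5 mM DTT, 0.00005% Triton X-100. Reaction started with 2 uM Z-FR-AMC; AMC fluorescence increase over 60 s gives rate.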
An asterisk follows results filed as active; u = inconclusive; x = no result given; & = joins results of further samples; [ ] = dose if it differs, or a comment. Unless noted, calls come from the whole dose curve; as a rule, active = well fitted curve in the direction sought with a large enough effect; inconclusive = small, poorly fitted or top-dose-only effect, or another doubt; inactive = no such curve, though single readings can be large; an effect the other way counts as inactive or inconclusive. Potency is the fitted concentration of half-maximal effect.

[1] CCCN(CCC)CCNC(=O)C1CC(=O)N(c2ccc(OC)cc2)C1c1ccc(OC)cc1 (stereo unspecified)
[2] CC(=O)c1cnn(-c2ccc(Cl)c(Cl)c2Cl)c1C
[3] CCCCCn1c(=O)c(C(=O)c2ccccc2)nc2ccccc21
[4] CC1=C(C(=O)Nc2ccccc2Br)C2(CCC(C)CC2)OC1=O (stereo unspecified)
[5] Brc1ccc(-c2nnc3n2-c2ccccc2CC3)cc1
[6] CCOc1ccccc1Nc1cc(C)nc2nnnn12
[7] Cc1ccc(-c2n[nH]c(=S)n2/N=C/c2ccc(C)o2)cc1
[8] COc1cc(CN2CCC(Cc3ccccc3)CC2)cc([N+](=O)[O-])c1O
[9] CCOc1ccc(CNC(=O)C2CCN(S(=O)(=O)CC)CC2)cc1OC
[10] Cc1cccn2c(NCc3ccc4c(c3)OCO4)c(-c3ccc(O)cc3)nc12
entry no.	1	2	3	4	5	6	7	8	9	10
Lassa entry inh	1%	-13%[46.1 µM]	-12%	13%[46.1 µM]	-1%	9%	u	x	8%	-22%
SARS PLpro yeast	5%	0%	0%	x	-2%	1%	-11%	7%	-2%	-1%
RE007 growth inh	-4%	8%	-2%	x	-26%	8%	7%	-8%	25%	-5%
Cruzain Triton	3.5%	x	-6.0%	-3.3%	0.0%	x	-4.2%	x	-2.3%	x
Marburg entry inh	u	-5%[46.1 µM]	5%	5%[46.1 µM]	2%	5%[46.1 µM]	30%	x	13%	-13%[46.1 µM]
NS1 function inh	-3%	-7%	5%	x	-32%	3%	20%	u	0%	x
StopGo reporter	6%	-2%	-3%	-20%	-18%	-11%	-15%	-10%	x	u
Cruzain inh noDet	1%	x	-3%	-1%	-4%	x	-1%	x	11%	x

[11] CCN(CC)C(=O)CSc1nnc(-c2ccco2)n1Cc1ccco1
[12] NNC(=O)CSc1nc(-c2ccccc2)cn1-c1ccccc1
[13] Cc1ccc(-c2nnn(CC(=O)N(CC(=O)NC3CCCC3)c3ccccc3F)n2)o1
[14] Cc1[nH]n(-c2ccccc2)c(=O)c1/C=N/N(c1ccccc1)c1ccccc1
[15] O=C(NC(Cc1ccccc1)C(=O)O)/C(=C\c1ccc(Br)cc1)NC(=O)c1ccc(Br)o1 (stereo unspecified)
[16] CCC(=O)Nc1c(-c2ccc3ccccc3c2)nc2ccccn12
[17] C/C(Cn1cnc([N+](=O)[O-])n1)=N\NC(=O)c1cccnc1
[18] CCC(C)(C)c1ccc(OCCCC[n+]2ccc(C)cc2)c(C(C)(C)CC)c1
[19] CCOc1ccccc1C(=O)NCC(=O)N(C)Cc1cccnc1
[20] CCCNC(=O)C1CCN(S(=O)(=O)c2ccc(-c3nn[nH]n3)cc2)CC1
entry no.	11	12	13	14	15	16	17	18	19	20
Lassa entry inh	u	x	x	15%	1%[46.1 µM]	x	3%	u	-1%	5%
SARS PLpro yeast	-12%	-2%	12%	0%	-6%	1%	4%	-18%	-2%	-17%
RE007 growth inh	-8%	-10%	14%	-16%	0%	1%	3%	u	-3%	-1%
Cruzain Triton	2.0%	x	x	x	x	x	-2.0%	x	x	-1.9%
Marburg entry inh	2%	x	-7%[46.1 µM]	u	3%[46.1 µM]	x	12%	21µM*	8%[46.1 µM]	6%
NS1 function inh	3%	11%	7%	10%	u	1%	-2%	x	1%	3%
StopGo reporter	-2%	6%	6%	-28%	3%	39%[activator]	-2%	u	14%	x
Cruzain inh noDet	9%	x	x	x	x	x	0%	x	x	-3%

Profiles as entered above.
Results for Cc1ccc(-c2nnn(CC(=O)N(CC(=O)NC3CCCC3)c3ccccc3F)n2)o1 : Lassa entry inh: x; SARS PLpro yeast: 12%; RE007 growth inh: 14%; Cruzain Triton: x; Marburg entry inh: -7%[46.1 µM]; NS1 function inh: 7%; StopGo reporter: 6%; Cruzain inh noDet: x
Results for C/C(Cn1cnc([N+](=O)[O-])n1)=N\NC(=O)c1cccnc1 : Lassa entry inh: 3%; SARS PLpro yeast: 4%; RE007 growth inh: 3%; Cruzain Triton: -2.0%; Marburg entry inh: 12%; NS1 function inh: -2%; StopGo reporter: -2%; Cruzain inh noDet: 0%

The listing continues.
[21] CCOc1ccc(CCNC(=O)c2ccc3c(c2)c(C)c(C)n3C)cc1
[22] Cc1nc2sccn2c(=O)c1S(=O)(=O)N1CCN(c2cccc(C(F)(F)F)c2)CC1
[23] COc1ccc(C(=O)COC(=O)c2ccc(-n3cnnn3)cc2)c(OC)c1
[24] CCN(CC)CC(O)COc1ccccc1C(=O)CCc1ccccc1 (stereo unspecified)
[25] Cn1ccc2cc(S(=O)(=O)N3CCCC(C(=O)NCc4ccccc4)C3)ccc21 (stereo unspecified)
[26] CCC(C(=O)Nc1cc(OC)ccc1OC)n1c(C)c2cnn(-c3ccccc3)c(=O)c2c1C (stereo unspecified)
[27] CCn1c(SCC(=O)Nc2ccccc2)nc2c1c(=O)n(C)c(=O)n2C
[28] CCc1cccc(OCC(=O)Nc2ccc(S(=O)(=O)Nc3onc(C)c3C)cc2)c1
[29] COc1ccccc1NC(=O)CN1CCN(CC(=O)Nc2cc(NC(C)=O)ccc2OC)CC1
[30] CCn1c(CN2CCOCC2)nnc1SCC(=O)Nc1cccc(C)c1
entry no.	21	22	23	24	25	26	27	28	29	30
Lassa entry inh	u	-25%[46.1 µM]	19%	0%	7%[46.1 µM]	22%[46.1 µM]	-3%	x	-18%	-2%
SARS PLpro yeast	x	-10%	-6%	5%	x	x	-24%	-5%	4%	5%
RE007 growth inh	x	5%	2%	-6%	x	x	13%	12%	39%	-21%
Cruzain Triton	-2.0%	x	x	0.1%	-2.9%	-5.9%	-2.7%	-4.4%	1.1%	x
Marburg entry inh	x	-22%[46.1 µM]	4%[46.1 µM]	u	x	23%[46.1 µM]	-21%	-3%	-5%[46.1 µM]	u
NS1 function inh	x	-30%	x	-18%	x	x	4%	-42%	-12%	3%
StopGo reporter	-3%	-20%	-6%	x	3%	-16%	-17%	-18%	u	-18%
Cruzain inh noDet	-17%	x	x	1%	-15%	u	-1%	u	5%	x

[31] COc1ccc(C)cc1-n1nnnc1SCC(=O)c1cc(C)n(Cc2ccco2)c1C
[32] CC(C)(C)Nc1nc(N2CCCC2)nc(N2CCCC2)n1
[33] CC(=O)Nc1nonc1-c1nc2ccccc2n1Cc1ccccc1
[34] COc1cc(Cc2nccc3cc(OC)c(OC)cc23)c(NC(C)=O)cc1OC
[35] O=C(O)CC(NC(=O)C12CC3CC(CC(C3)C1)C2)c1cccc([N+](=O)[O-])c1 (stereo unspecified)
[36] CC1Cc2ccccc2N1C(=O)Cn1c(=O)oc2cc(S(=O)(=O)NC3CCCC3)ccc21 (stereo unspecified)
[37] CCOc1cc(S(=O)(=O)N2CCN(c3ccc(F)cc3)CC2)c(OCC)cc1-n1cnnn1
[38] CSc1cccc(NC(=O)C2CCN(S(=O)(=O)c3cnc[nH]3)CC2)c1
[39] Cc1[nH]c2ccccc2c1C(=O)C(=O)Nc1ccc2c(c1)OCCO2
[40] O=C1c2ccccc2N2C(=O)c3ccccc3[C@H]2N1c1ccccc1
entry no.	31	32	33	34	35	36	37	38	39	40
Lassa entry inh	-7%	u	-13%	-1%[46.1 µM]	-1%	x	-1%	x	20%[46.1 µM]	5%
SARS PLpro yeast	-8%	2%	2%	5%	-2%	8%	-6%	-1%	3%	4%
RE007 growth inh	-1%	0%	0%	9%	-10%	-3%	-22%	-5%	-6%	-5%
Cruzain Triton	-1.6%	3.0%	-5.0%	x	x	-1.8%	1.7%	x	x	-2.3%
Marburg entry inh	-2%&-2%	u	-28%	-14%[46.1 µM]	17%[46.1 µM]	-4%	1%&5%	x	u	-17%
NS1 function inh	5%	-103%	6%	u	x	9%	-47%	6%	-10%	1%
StopGo reporter	-1%	u	-12%	16%	1%	25%	x	-12%	25%	0%
Cruzain inh noDet	u	9%	-11%	x	x	u	u	x	x	3%

[41] O=C(CN(C(=O)c1csnn1)c1ccccc1F)NC1CCCCC1
[42] O=C(Nc1cccc(-c2nc3ncccc3o2)c1)c1cc2ccccc2o1
[43] Cc1cc(C)n(CCN(C)C(=O)C2CCC(=O)N(CCc3cccc(F)c3)C2)n1 (stereo unspecified)
[44] S=C1NC2(CCCCC2)Cc2ccccc21
[45] CC(C)(C)C(=O)Nc1nc2nc(-c3ccccc3)cc(=O)n2[nH]1
[46] C/C(CC(=O)Nc1ccc(N(C)C)cc1)=N\NC(=O)c1ccc(Cl)cc1Cl
[47] CCOC(=O)c1c(NC(=O)C(C)Oc2ccc(Cl)c(C)c2)sc2c1CCCC2 (stereo unspecified)
[48] COC(=O)/C=C(\Oc1ccccc1)C1(O)CCCCC1
entry no.	41	42	43	44	45	46	47	48
Lassa entry inh	6%	3%	x	u	x	2%	u	16%
SARS PLpro yeast	-1%	-19%	24%	-40%	x	-14%	x	2%
RE007 growth inh	-7%	-8%	14%	-9%	x	-21%	x	-3%
Cruzain Triton	x	-6.9%	x	-4.5%	-0.2%	x	-0.4%	x
Marburg entry inh	-9%[46.1 µM]	u	x	-14%	12%[46.1 µM]	-25%	x	0%
NS1 function inh	0%	-84%&4%	-10%	-47%	x	2%	x	1%
StopGo reporter	12%	-20%	-10%	-14%	13%	0%	-8%	3%
Cruzain inh noDet	x	u	x	-17%	-11%	x	5%	x

Only StopGo reporter (five entries from above):
| no. | Molecule | StopGo reporter |
| --- | --- | --- |
| 44 | S=C1NC2(CCCCC2)Cc2ccccc21 | -14% |
| 45 | CC(C)(C)C(=O)Nc1nc2nc(-c3ccccc3)cc(=O)n2[nH]1 | 13% |
| 46 | C/C(CC(=O)Nc1ccc(N(C)C)cc1)=N\NC(=O)c1ccc(Cl)cc1Cl | 0% |
| 47 | CCOC(=O)c1c(NC(=O)C(C)Oc2ccc(Cl)c(C)c2)sc2c1CCCC2 (stereo unspecified) | -8% |
| 48 | COC(=O)/C=C(\Oc1ccccc1)C1(O)CCCCC1 | 3% |
